# D2 agonist: agonists of human D2 dopamine receptor (beta-arrestin). P14416. DiscoveRx PathHunter D2 beta-arrestin, luminescence, 90 min; 100% = 57 uM dopamine signal. activation, % (concentration not given with the values). 360,000 compounds, 0.084% hits; in the data active = activation above about 40%; inconclusive = about 15% to 40%; inactive = below about 15%; also: the text of the record calls up to 30% inactive
#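 DiscoveRx PathHunter D2 beta-arrestin cells (2,100/well) attached overnight, then compound-stimulated 90 min at 37 C in HBSS/10 mM HEPES/0.1% Tween-20 buffer; beta-galactosidase complementation read by luminescence after 1 h at ambient temperature. Dopamine 57 uM final (EC100) as control.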
# gsp ag: activates gsp, the McCune-Albright syndrome mutation. gsp mutant cells, cAMP HTRF, 30 min; control for the full effect not named in the record. AID 624287. Potency, µM (series often up to 76.9 µM), for the others: top-dose activation (cAMP increase), most hits filed as activators. 340,000 compounds, 0.13% hits; active = well fitted activation curve with a large enough effect; inconclusive = small, poorly fitted or top-dose-only effect, or another doubt; inactive = no such curve, though single readings can be large or run the other way; cell line not stated here;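 also: phosphodiesterase inhibitor Ro 20-1724 added with compounds to block cAMP breakdown; potency is read from the fitted curve at half-maximal effect; nearly all actives have a fitted effect of over 60% in size; about a fifth of the inactives were tested at one dose only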
#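 Cells stably selected in G418 were plated at 2000/well, grown 16-24 hr, then given compounds in DMSO with the PDE inhibitor […] (300 uM solution added) for 30 min at 37C; cAMP was read by HTRF.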
# CtBP-E1A inh: inhibitors of CtBP/E1A interaction; AlphaScreen GST-E1A/His-CtBP binding, 1536-well; stronger effect = lower value; control for the full effect not named in the record; activity change, % (test concentration not listed); 340,000 compounds, 0.49% hits; in the data active means activity change below about -65%; inconclusive means about -30% to -65%; inactive means above about -30%; also: % is scaled to controls: 0 for no effect and ±100 for the full control effect
#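 In 5 uL wells, 23 nL compound meets equimolar GST-E1A and His-CtBP (5X stock 125 nM each) for 2 h, 37 °C. Beads (5X, 50 ug/mL) then 1 h, 37 °C, dark.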
# D2 PAM: potentiates the human D2 dopamine receptor allosterically; DiscoveRx D2 beta-arrestin cells, luminescence, 90 min; 100% = 57 uM dopamine signal; potentiation, % (concentration not given with the values); 360,000 compounds, 0.23% hits; AID 624464; active = potentiation of 50% or more; inconclusive = 30% to 50%; inactive = 30% or less;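 also: tested on top of an EC20 dose of dopamine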
#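 D2 cells co-treated with compound plus 50 nM dopamine (EC20) for 90 min at 37 deg C to detect potentiation. Beta-arrestin recruitment was read as enzyme-fragment luminescence after 1 h at ambient temperature. Full response was set by 57 uM dopamine.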
# gsp antag: antagonizes gsp, the McCune-Albright syndrome mutation; 340,000 compounds, 0.4% hits; gsp-mutant cells, cAMP HTRF, 30 min; control for the full effect not named in the record; Potency, µM (doses to about 76.9 µM), for the others: top-dose activity change, negative = inhibition, usual class: inhibitors; active = falling curve of any shape with a large fitted effect; inconclusive = falling curve, mostly with a smaller effect; inactive = flat or rising curve; cell line not stated here;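 also: intracellular cAMP measured with PDE inhibitor Ro 20-1724 present during compound exposure; potency is read from the fitted curve at half-maximal effect; % is scaled to controls: 0 for no effect and ±100 for the full control effect; nearly all actives have a fitted effect of over 65% in size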
#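 G418-selected cells were plated in DMEM/10% FBS for 16-24 h at 37C, then treated with compounds plus the PDE inhibitor […] (300 uM solution added) for 30 min at 37C. Intracellular cAMP was measured by HTRF after 30 min lysis at room temperature.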
# Six1-Eya2 inh: inhibitors of human Six1/Eya2 interaction; AlphaScreen GST-Six1/His-Eya2 binding, biochemical; stronger effect = lower value; control for the full effect not named in the record; activity change, % (concentration not given with the values); 360,000 compounds, 0.56% hits; AID 651725; in the data active = activity change below about -65%; inconclusive = about -30% to -65%; inactive = above about -30%; also: % is scaled to controls: 0 for no effect and ±100 for the full control effect
# Target sequence (O00167 whole entry, looked up): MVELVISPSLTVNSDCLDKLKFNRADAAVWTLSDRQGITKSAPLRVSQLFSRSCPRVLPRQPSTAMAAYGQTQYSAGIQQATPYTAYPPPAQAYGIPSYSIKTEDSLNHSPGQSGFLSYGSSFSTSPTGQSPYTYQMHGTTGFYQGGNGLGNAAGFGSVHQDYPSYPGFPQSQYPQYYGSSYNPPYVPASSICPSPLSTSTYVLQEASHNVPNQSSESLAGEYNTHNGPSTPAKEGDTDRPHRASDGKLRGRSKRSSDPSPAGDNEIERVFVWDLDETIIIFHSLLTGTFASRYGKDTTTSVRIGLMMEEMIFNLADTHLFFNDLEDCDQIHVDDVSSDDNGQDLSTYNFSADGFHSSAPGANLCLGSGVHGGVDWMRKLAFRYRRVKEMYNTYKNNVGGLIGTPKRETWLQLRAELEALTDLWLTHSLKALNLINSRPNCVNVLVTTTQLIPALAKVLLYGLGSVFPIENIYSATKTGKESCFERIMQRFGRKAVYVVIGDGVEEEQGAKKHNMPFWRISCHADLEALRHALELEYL
# Target sequence (Q15475 whole entry, looked up): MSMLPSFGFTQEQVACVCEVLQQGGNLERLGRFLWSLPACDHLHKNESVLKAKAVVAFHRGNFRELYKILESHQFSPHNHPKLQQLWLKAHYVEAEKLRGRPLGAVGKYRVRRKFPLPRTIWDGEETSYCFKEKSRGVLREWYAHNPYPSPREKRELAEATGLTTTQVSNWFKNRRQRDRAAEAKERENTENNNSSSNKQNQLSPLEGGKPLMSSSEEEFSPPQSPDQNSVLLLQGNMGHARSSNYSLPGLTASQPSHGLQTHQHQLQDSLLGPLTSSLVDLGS
#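 AlphaScreen with GST-Six1 and His-Eya2 (5X mix: 250 nM and 500 nM), glutathione donor and nickel acceptor beads; buffer 50 mM Tris pH 8.0, 300 mM NaCl, 1 mM TCEP; 1 h at 37 C in the dark.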
# * = called active by the depositor; ? = inconclusive; . = not tested or not shown; & = joins results of further samples; [ ] = remark or other dose.
SMILES,D2 agonist,gsp ag,CtBP-E1A inh,D2 PAM,gsp antag,Six1-Eya2 inh
CCn1ccnc1CNC(=O)c1ccc2oc(C(C)C)nc2c1,-3.8,-2%,-19,-38,5%,-14
CCOc1ccccc1/C=N/NC(=O)c1cc(C(C)C)[nH]n1,-1.6,-15%[15.4 µM],1,-18,-26%,3
O=C(OCC(=O)N1CCCC1)c1cncc(Br)c1,-1.6,-23%,-2,-3,2%,3
C/C(Cl)=C\Cn1c(NCCc2ccccc2)nc2c1c(=O)n(C)c(=O)n2C,2.2,-6%,13,-4,?,-1
CC(C)(C)n1nnnc1C(CCc1ccccc1)N1CCN(C/C=C/c2ccccc2)CC1 (stereo not drawn),-3.1,.,-16,-14,.,-15
CCN(CC(=O)Nc1ccc2c(c1)OCCO2)C(=O)COc1ccc(C(C)=O)cc1,-0.4,-13%,0,-5,.,-9
O=C(c1ccc(Cl)cc1)c1c[nH]c(C(=O)C(Cl)(Cl)Cl)c1,-3.0,?,4,-2,6%,-2
C/C(CC(=O)Nc1ccc(N(C)C)cc1)=N\NC(=O)c1ccc(Cl)cc1,2.2,27%,-12,-12,-2%,-19
Cc1ccc(F)cc1NC(=O)CSc1nc(Nc2ccccc2)nc(N2CCOCC2)n1,1.0,8%,-3,9,-9%,1
COc1cc2c(cc1OC)CN(S(C)(=O)=O)CC2,-6.2,23%,2,-10,9%,1
C#CCNC(=O)/C=C/c1ccc(OC)cc1,-1.9,.,2,0,4%,1
COc1ccccc1N1CCN(C(=O)CN(c2ccccc2OC)S(=O)(=O)c2ccccc2)CC1,1.4,-18%,-3,14,-10%,-2
O=C(Nc1cccc(-c2nnc(-c3ccccc3)o2)c1)C1CC1,-0.6,-13%[15.4 µM],-13,7,-32%,-12
CCN(C(=O)CSc1nc(C)nc2sc(C)c(C)c12)c1ccc(F)cc1,-4.2,?,5,-8,-5%,0
CCC(=O)c1ccc(NC(C)=O)cc1O,-5.4,24%,.,-14,2%,3
CCOC(=O)C1=C(COC(=O)CSc2ccc(C)cc2)NC(=O)NC1C (stereo not drawn),8.3,4%,1,-3,11%,4
Cc1ccsc1C(=O)OCC(=O)Nc1nnc(-c2ccccc2)o1,3.1,4%[15.4 µM],?,6,4%,?
NC(c1csc(NC(=O)Nc2ccccc2)n1)C1CCCCC1 (stereo not drawn),-2.0,.,-2,4,.,1
O=C(C1CC(c2ccccc2O)=NO1)N1CCCC1 (stereo not drawn),0.2,10%,7,17,0%,4
Cc1cc(NC(=O)Cn2cnc3sc(C)c(-c4ccccc4)c3c2=O)no1,0.8,-44%[inhibitor],-14,13,4%,4
COC(=O)c1sccc1NC(=S)OC,-2.3,6%[15.4 µM],-2,-9,5%,10
Cc1ccc(-c2cc(C(=O)N/N=C/c3c[nH]c4ccccc34)[nH]n2)cc1,2.4,-1%[15.4 µM],-10,-3,8%,-4
Nc1ncnc2c1ncn2[C@@H]1O[C@H](C(=O)NCC(F)(F)F)[C@@H](O)[C@H]1O,-4.9,.,1,0,.,5
O=C(N/N=C/c1cc(Br)c(O)c([N+](=O)[O-])c1)C(O)(c1ccccc1)c1ccccc1,-6.9,-37%[inhibitor],0,-13,?,-2

# Taken from above.
# Reading of Cc1ccc(-c2cc(C(=O)N/N=C/c3c[nH]c4ccccc34)[nH]n2)cc1 under gsp antag: 8%
# Reading of COC(=O)c1sccc1NC(=S)OC under D2 agonist: -2.3
# Reading of CCOC(=O)C1=C(COC(=O)CSc2ccc(C)cc2)NC(=O)NC1C (stereo not drawn) under CtBP-E1A inh: 1
# Reading of Cc1ccsc1C(=O)OCC(=O)Nc1nnc(-c2ccccc2)o1 under D2 PAM: 6

# Further records follow.
SMILES,D2 agonist,gsp ag,CtBP-E1A inh,D2 PAM,gsp antag,Six1-Eya2 inh
Cc1ccc(S(=O)(=O)N2CCOC2CNC(=O)C(=O)NCCc2ccc(S(N)(=O)=O)cc2)cc1 (stereo not drawn),1.2,-28%[15.4 µM],-12,-2,16%,-11
CCOc1cc(NC(=S)NCCCN2CCOCC2)c(OCC)cc1NC(=O)C1CC1,-0.3,2%,18,-1,2%,0
O=C(N/C(=C\c1ccc([N+](=O)[O-])cc1)C(=O)N1CCOCC1)c1ccco1,6.6,4%,5,-5,8%,9
CS(=O)(=O)N(CC(=O)N/N=C/c1ccc(OCC(=O)N2CCOCC2)cc1)c1ccccc1Cl,-3.4,14%,-13,-8,9%,-7
c1nnn(C23CC4CC(CC(C4)C2)C3)n1,4.2,16%,12,13,9%,5
O=C(NNC(=O)c1cc(Br)c(Br)s1)c1ccncc1,0.3,18%,5,-13,?,3
CCN(C(=O)Cc1c(C(=O)O)n(C)c2ccccc12)c1ccc(F)cc1,-3.2,9%[15.4 µM],-1,-8,-8%,3
COc1ccc(-c2cc(=O)c3c(C)cc(O)cc3o2)cc1,0.1,1%,0,-10,-9%,-4
COCCNC(=O)C1CCN(C(=O)C2CC(=O)N(c3ccc(C)cc3)C2)CC1 (stereo not drawn),-0.3,-5%[15.4 µM],0,-6,-1%,3
Cc1ccc(Cl)cc1-c1cc(C(=O)NCc2ccccc2)[nH]n1,2.7,.,2,-16,.,-8
CCc1onc(C)c1C(=O)Nc1ccc(N2CCOCC2)cc1,3.0,18%,10,-4,6%,5
Cc1ccc(OCC(O)CN2CCN(CC(O)COc3ccc(C)cc3)CC2)cc1 (stereo not drawn),-1.0,-51%[inhibitor],-9,-26,12%,-2

# Structural class, the entries above containing an NH in an aromatic ring
SMILES,D2 agonist,gsp ag,CtBP-E1A inh,D2 PAM,gsp antag,Six1-Eya2 inh
CCOc1ccccc1/C=N/NC(=O)c1cc(C(C)C)[nH]n1,-1.6,-15%[15.4 µM],1,-18,-26%,3
O=C(c1ccc(Cl)cc1)c1c[nH]c(C(=O)C(Cl)(Cl)Cl)c1,-3.0,?,4,-2,6%,-2
Cc1ccc(-c2cc(C(=O)N/N=C/c3c[nH]c4ccccc34)[nH]n2)cc1,2.4,-1%[15.4 µM],-10,-3,8%,-4
Cc1ccc(Cl)cc1-c1cc(C(=O)NCc2ccccc2)[nH]n1,2.7,.,2,-16,.,-8

# Later entries.
SMILES,D2 agonist,gsp ag,CtBP-E1A inh,D2 PAM,gsp antag,Six1-Eya2 inh
CC1(C)CC(N(Cc2cccs2)C(=O)c2ccco2)CCO1 (stereo not drawn),0.1,-2%,-2,8,6%,3
COC(=O)c1ccc(NCC(=O)c2ccccc2)cc1,-2.2,17%,6,-36,7%,8
CN(c1ccc(C(=O)N2CCCCC2)cc1)S(=O)(=O)c1ccccc1,2.5,-70%[inhibitor],-11,6,?,-6
Cc1cc(C)c(C#N)c(SCc2cc3c(cc2Cl)OCO3)n1,-2.1,1%,12,-26,-2%,-1
CCN(CC(=O)Nc1c(F)cccc1F)C(=O)c1ccc(S(=O)(=O)N2CCC(C)CC2)cc1,1.1,-14%,-2,8,-9%,-3
O=C(NC(=S)N1CCN(Cc2ccccc2)CC1)c1ccccc1,-4.5,-3%,1,-33,4%,4
CCOC(=O)C1=C(C)N=C2SC(C(=O)OC)=CC(=O)N2C1c1ccc(OC)cc1 (stereo not drawn),-3.1,-10%[15.4 µM],0,1,-2%,7
CCC(C)Sc1nc2c(cnn2-c2ccc(F)cc2)c(=O)[nH]1 (stereo not drawn),-3.7,14%[15.4 µM],1,-7,-15%,8
Cc1ccc(N2C(=O)C3C4CC(=O)C(c5ccccc54)C3C2=O)cc1C (stereo not drawn),-3.3,9%,-4,-14,-13%,-1
CN(Cc1ccc2ccccc2c1)C(=O)c1ccc(C(F)(F)F)cc1,1.1,6%,9,-5,3%,8
CCc1cc2c(=O)n(CC)c(SC(C)C(=O)Nc3c(C)n(C)n(-c4ccccc4)c3=O)nc2s1 (stereo not drawn),-0.7,-9%,1,1,-14%[15.4 µM],9
COc1ccc(OC)c2[nH]c(=O)c(CCNC(=O)c3cccs3)cc12,-0.9,-1%,-7,-17,-1%,-10
CC1CCC2(CC1)NC(=O)N(CC(=O)Nc1ccc3c(c1)CCC3)C2=O (stereo not drawn),-1.5,8%[15.4 µM],7,2,-2%,13
C[C@H](CO)N1C[C@H](C)[C@@H](CN(C)S(=O)(=O)c2cn(C)cn2)Oc2c(NS(=O)(=O)c3ccccc3)cccc2C1=O,-1.2,.,2,0,10%,5
COCCN(C(=O)CC1C(=O)NCCN1CC(c1ccccc1)c1ccccc1)C(C)C (stereo not drawn),-3.2,5%,-7,-4,7%,3
CN(C)CCCN1c2ccccc2Sc2ccc(C(F)(F)F)cc21,3.8&4.2,.,-17,-22,1%,-5
N#C/C(=C\c1cccc([N+](=O)[O-])c1)c1ccccn1,-0.1,?,-22,-2,-3%,-3
COc1ccccc1C(=O)C1CCCN(C(=O)CSc2ccccn2)C1 (stereo not drawn),-1.3,-20%[15.4 µM],9,1,2%,2
CCCNS(=O)(=O)c1cc2c3c(c1)C(C)C(=O)N3CCC2 (stereo not drawn),-6.7,16%,.,-5,-4%,3
CCOc1cc2[nH]c(=S)n(Cc3ccc(C(=O)N4CCN(C)CC4)cc3)c(=O)c2cc1OCC,-1.5,?,-18,-22,1%,-1
COCc1cc(C2C(C(=O)c3ccco3)=C(O)C(=O)N2CCOCCO)ccc1O (stereo not drawn),-2.6,6%,6,4,9%,3
CC1=C(C(=O)N(C(C)C)C(C)C)CC(CC(=O)NCCCCc2ccccc2)C(=O)N1Cc1ccc(F)cc1 (stereo not drawn),1.9,.,-2,-4,.,-3
O=C(Nc1nnc(/N=C/c2ccco2)s1)c1ccc(F)cc1,-1.3,-14%,-5,-12,11%,1
CC1Oc2ccccc2N(CC(=O)NC2CCCC2)C1=O (stereo not drawn),-2.1,-2%[15.4 µM],2,-4,11%,1
O=C1C2C3c4ccccc4C(c4ccccc43)[C@@H]2C(=O)N1c1nc(-c2ccccc2)cs1 (stereo partly drawn),-0.6,-52%[inhibitor],-5,-6,2%,-7
CCOC(=O)CNC(=O)Cc1ccc(Cl)cc1,-2.7,-9%[15.4 µM],9,-10,10%,-23
O=C(Nc1cccc(-c2nc3cccnc3s2)c1)c1ccco1,-0.4,-49%[inhibitor],5,6,-1%,-7
CCCCNC(=S)Nc1cccc(C(C)=O)c1,0.1,-11%,0,-4,4%,10
COc1ccc(Cn2nc(C(=O)O)c3ccccc3c2=O)cc1F,-0.3,23%,-9,-3,1%,1
CCCc1c(O)nc(SC2CC(=O)N(c3ccc(OC)cc3)C2=O)[nH]c1=O (stereo not drawn),-2.8,-30%[15.4 µM],-8,-2,-3%,1
O=C(OCC(=O)N1CCc2ccccc21)c1ccncc1,-1.8,-15%,-13,-3,3%,-15
COc1cc(-c2[nH]ncc2CN2CCN(Cc3cccs3)CC2)cc(OC)c1OC,-3.0,0%[15.4 µM],-2,-33,6%,-3
CCOc1cccc(C=NCCc2ccc(OC)c(OC)c2)c1O,-4.0,-24%,.,-20,-5%,1
CCOC(=O)c1cc(CC)sc1NC(=O)COC(=O)c1cc[n+]([O-])cc1,0.0,-19%,2,-5,0%,10
CC(=O)c1cccc(NC(=O)CSc2ccc(-c3ccc4c(c3)OCO4)nn2)c1,-1.2,-12%,0,-9,-22%,0
